# KCNQ2 enhance: enhances the rat KCNQ2 potassium channel; O88943; CHO-K1 KCNQ2, FluxOR thallium flux fluorescence; hits give high values; B-score at 10 µM; 310,000 tested, 0.54% active; AID 2239;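 active = fluorescence ratio B-score at least 3 SD of library B-scores, with initial fluorescence B-score within 3 SD, cut at about 5.3 in these data; same plate scores as AID 2156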;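 also: B-score of peak minus minimum over baseline fluorescence ratio after K+ and Tl+ stimulus; positive B-score means potentiation of KCNQ2 with more thallium influx and brighter signal; only the inactives scoring about 0 or higher are listed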
# Target sequence (O88943 whole entry, looked up): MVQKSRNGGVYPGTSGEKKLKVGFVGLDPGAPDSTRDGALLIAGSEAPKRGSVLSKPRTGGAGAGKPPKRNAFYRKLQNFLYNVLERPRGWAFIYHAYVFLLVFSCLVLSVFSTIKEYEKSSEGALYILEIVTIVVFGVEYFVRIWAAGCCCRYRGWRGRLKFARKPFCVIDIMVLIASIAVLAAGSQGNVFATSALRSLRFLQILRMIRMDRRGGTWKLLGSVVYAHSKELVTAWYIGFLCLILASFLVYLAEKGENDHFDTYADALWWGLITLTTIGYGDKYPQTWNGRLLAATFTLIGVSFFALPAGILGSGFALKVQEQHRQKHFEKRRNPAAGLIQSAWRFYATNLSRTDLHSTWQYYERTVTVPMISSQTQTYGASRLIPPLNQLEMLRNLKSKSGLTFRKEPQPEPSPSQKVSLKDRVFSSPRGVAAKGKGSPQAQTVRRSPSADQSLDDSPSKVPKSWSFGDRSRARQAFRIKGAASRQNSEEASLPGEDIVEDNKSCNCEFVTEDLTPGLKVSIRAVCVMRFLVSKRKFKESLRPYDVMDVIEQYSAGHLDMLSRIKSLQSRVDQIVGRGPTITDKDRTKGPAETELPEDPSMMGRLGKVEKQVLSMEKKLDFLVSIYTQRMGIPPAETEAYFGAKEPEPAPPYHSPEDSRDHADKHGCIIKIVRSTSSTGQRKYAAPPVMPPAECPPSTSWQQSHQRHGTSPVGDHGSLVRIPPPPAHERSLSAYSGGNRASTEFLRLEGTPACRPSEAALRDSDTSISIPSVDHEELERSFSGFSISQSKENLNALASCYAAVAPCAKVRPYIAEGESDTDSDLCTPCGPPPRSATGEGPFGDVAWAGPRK
# KCNQ2 enhance baseline: recorded beside KCNQ2 enhance, whose call it bears; B-score; compound at 10 µM; measured here: initial fluorescence intensity artifact check;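 brightness before thallium and not channel activity; 0 = typical well and far values either way flag optical interference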
# * = called active by the depositor.
# Every second line gives: KCNQ2 enhance	KCNQ2 enhance baseline
1) COC(=O)CSc1nc(-c2ccc(C)cc2)c2c(c1C#N)CCCC2
    0.59	0.34
2) CC1(C)CC(n2c(=S)[nH]c3ccccc3c2=O)CCO1 (stereo not given)
    0.74	0.79
3) O=[N+]([O-])c1ccc(OCCN2CCNCC2)cc1
    1.3	0.7
4) CC(C)C(NC(=O)c1ccccc1)C(=O)NCC(c1ccccc1)N(C)C (stereo not given)
    1.6	0.09
5) N/C(=N\OS(=O)(=O)c1ccc2ccccc2c1)c1ccncc1
    2.3	2.3
6) CCOc1ncccc1C(=O)OCC(=O)NC1CC1
    0.4	-1.7
7) Cc1csc(NC(=O)C(CC(C)C)NS(=O)(=O)c2ccc3c(c2)oc(=O)n3C)n1 (stereo not given)
    2.9	-3.5
8) CC(=O)Nc1ccc(S(=O)(=O)NC(CC(=O)NCCCN2CCOCC2)C(C)C)cc1 (stereo not given)
    1.8	-2.3
9) CCOc1ccc(NC(=S)NC(C)C(c2ccccc2)N2CCN(C)CC2)cc1 (stereo not given)
    0.2	-0.51
10) Nc1nc2ccccc2n1/N=C/c1ccc2c(c1)OCO2
    1.9	0.71
11) N#CC1=C(SCC(=O)Nc2ccccc2)NC(=O)CC1c1ccco1 (stereo not given)
    1.5	2.1
12) CC(C)NCCOc1cccc(Br)c1
    1.2	-1.4
13) Cc1c(NC(=O)/C(C#N)=C/c2ccccc2)c(=O)n(-c2ccccc2)n1C
    0.25	0.34
14) CC(C)N1CC2(c3ccccc3)CN(C(C)C)CC(c3ccccc3)(C1)C2=O
    0.8	0.36
15) Cc1ccnc(NC(=O)/C=C/c2ccccc2[N+](=O)[O-])c1
    0.94	0.88
16) CCN(CC(=O)Nc1ccc(NC(C)=O)cc1)c1ccc(C(F)(F)F)cn1
    0.2	-1.3
17) Cn1c(=O)[nH]c2nnc(-c3ccc(Cl)c(Cl)c3)nc2c1=O
    5.2	-0.45
18) COCCn1c(SCC(=O)NCc2ccccc2)nnc1-c1ccco1
    0.52	-0.13
19) CC1CCCC(C)N1/N=C/c1ccc(C#N)cc1 (stereo not given)
    0.41	-0.66
20) Cc1ccnc(NS(=O)(=O)c2ccc(-n3cccn3)cc2)c1
    0.67	-0.79

# A draw from above in order of count of non-hydrogen atoms, smallest number first:
# Every second line gives: KCNQ2 enhance	KCNQ2 enhance baseline
6) CCOc1ncccc1C(=O)OCC(=O)NC1CC1
    0.4	-1.7
15) Cc1ccnc(NC(=O)/C=C/c2ccccc2[N+](=O)[O-])c1
    0.94	0.88
20) Cc1ccnc(NS(=O)(=O)c2ccc(-n3cccn3)cc2)c1
    0.67	-0.79
5) N/C(=N\OS(=O)(=O)c1ccc2ccccc2c1)c1ccncc1
    2.3	2.3
14) CC(C)N1CC2(c3ccccc3)CN(C(C)C)CC(c3ccccc3)(C1)C2=O
    0.8	0.36
8) CC(=O)Nc1ccc(S(=O)(=O)NC(CC(=O)NCCCN2CCOCC2)C(C)C)cc1 (stereo not given)
    1.8	-2.3

# Following part
# Every second line gives: KCNQ2 enhance	KCNQ2 enhance baseline
21) CCC(=O)NC(=S)Nc1cccc(NC(=O)c2ccccc2)c1
    2	0.25
22) Cc1ccc(-c2cnc3cc(C)nn3c2)cc1
    0.37	-1.4
23) CCOc1ccc(NS(=O)(=O)c2cc(C(=O)N3CCN(C(C)=O)CC3)ccc2Cl)cc1
    1.2	-1.5
24) C/C(N)=C(/C#N)C(=O)COC(=O)COc1ccc(Cl)cc1C
    0.69	1.7
25) COC(=O)c1ccc(COc2ccccc2/C=C(\C#N)C(=O)Nc2ccccc2C)cc1
    0.01	-1
26) CCN(CC)CCCN=Cc1c(-c2ccccc2)[nH]n(-c2nc3ccccc3s2)c1=O
    0.55	-0.34
27) Cc1nn(-c2ccc(Cl)cc2)c(=O)c2ccccc12
    0.08	0.16
28) COc1cc(NC(=O)C(c2ccccc2)c2ccccc2)c(C(=O)O)cc1OC
    0.39	-0.71
29) O=C(NC(NC1CCS(=O)(=O)C1)C(Cl)(Cl)Cl)c1cccc(Cl)c1 (stereo not given)
    0.01	2.9
30) Cc1cc2c(cc1S(=O)(=O)Nc1ccc(F)cc1)n(C)c(=O)c(=O)n2C
    0.01	0.6
31) CCOC(=O)N1CCC(C(N)=O)CC1
    0.76	0.01
32) O=C(N/N=C/c1ccc(C(=O)O)cc1)C1=NNC(c2ccccc2)(c2ccccc2)C1
    0.19	-1.5
33) COc1cccc(NC(=O)CN(C)C(=O)/C=C/c2cc(OC)ccc2OC)c1
    0.92	-0.66
34) CCOc1ccc(-c2cc(CCCC(=O)Nc3cc(OC)ccc3OC)no2)cc1
    0.12	-0.96
35) Cc1cc(NC(=O)COC(=O)C2COc3ccccc3O2)no1 (stereo not given)
    0.02	0.62
36) COc1ccc(Cc2nnc(NC(=O)c3cccs3)s2)cc1
    2	-0.48
37) CCn1cc(Cl)c(C(=O)Nc2ccc(OC)c(OC)c2)n1
    1.6	0.33
38) COc1ccc(N2C(=O)CC(Sc3nc(C)cc(C)c3C#N)C2=O)cc1 (stereo not given)
    0.07	-0.2
39) CC1CCN(C(=O)c2cc(N3C(=O)C4C5CCC(C5)C4C3=O)ccc2Cl)CC1 (stereo not given)
    1.2	-0.74
40) CCCCC(=O)Nc1ccc2c3c(cccc13)CC2
    19*	-0.28*
41) O=C(O)c1ccccc1/C=N/NC(=S)NC1CCCCC1
    1.2	0.77
42) CCOC(=O)c1c(C)[nH]c(C(=O)CSc2nc(C)cc(C)n2)c1C
    0.17	0.05
43) COc1ccc(CC2(CO)CCN(S(=O)(=O)c3cccc4cccnc34)CC2)cc1
    0.49	0.05
44) COc1cc(C(=O)NNc2nc3cc4c(cc3s2)OCO4)cc(OC)c1OC
    12*	0.54*
45) CCOC(=O)N1CCN(S(=O)(=O)N2CCCC(C(=O)NCCCN3CC(C)CC(C)C3)C2)CC1 (stereo not given)
    0.71	0.56
46) COc1cccc(C(=O)Cn2c(NCCCO)nc3ccccc32)c1
    2	-0.74
47) O=C(O)C1CCCCC1C(=O)Nc1nc(-c2cccs2)cs1 (stereo not given)
    1.5	0
48) Cc1ccc(S(=O)(=O)N(CC(=O)Nc2cccc([N+](=O)[O-])c2)C(=O)N2CCN(C)CC2)cc1
    0.04	-0.09
49) COc1ccccc1-c1cc(C(=O)N/N=C/c2cccs2)c2ccccc2n1
    0.1	-0.16
50) C/C(=N\Nc1ccccc1[N+](=O)[O-])c1ccc(N2CCOCC2)cc1
    0.84	-1.8
51) CNC(=S)N(CCCO)Cc1cc2cc3c(cc2[nH]c1=O)OCO3
    0.41	1.2
52) CC(C)Cc1nc(SCc2cccnc2)c2c(=O)n(C)c(=O)n(C)c2n1
    1.7	-0.41
53) N#Cc1cc(C(=O)c2cc(Br)ccc2O)cn(C2CCCCC2)c1=O
    1	1.6
54) Cc1ccc(C(=O)OCC(=O)N(C)c2ccccc2)c(C)c1
    0.53	1.2
55) Cc1c(-c2nc(-c3ccc(C(C)(C)C)cc3)no2)n(C)oc1=O
    1.5	-0.67
56) COc1ccccc1OCCCC(=O)NCc1ccco1
    1	-0.97
57) O=S(=O)(Cc1ccccc1)N1CCN(c2ccccc2)CC1
    0.77	-2.5
58) CC(C)CN1CCC(C(=O)N2CCN(c3ccccc3F)CC2)CC1
    0.11	0.09
59) COc1cc(C(C)=O)ccc1OCC(=O)OCCCOC(=O)COc1ccc(C(C)=O)cc1OC
    0.65	-0.3
60) O=c1[nH]c2c(s1)C(c1ccc(O)cc1)C1C3CCC(C3)C1S2 (stereo not given)
    0.02	1.1
61) Cc1ccc(-c2c(C#N)c(N)n(-c3ccc(C)cc3)c(=O)c2C#N)cc1
    0.02	-0.7
62) Cc1onc(-c2c(F)cccc2Cl)c1C(=O)N1CCN(S(C)(=O)=O)CC1
    0.93	-0.3
63) CC1CCN(C(=O)CN2C(=O)C(C)(C)Oc3ccc(C(=O)NC(C)C)cc32)CC1
    1.2	-1.1
64) O=C(CC12CC3CC(CC(Br)(C3)C1)C2)OCCN1CCCCC1
    0.71	-0.09
65) COc1cccc(NS(=O)(=O)c2ccc3[nH]cc(C(=O)NC4CC4)c(=O)c3c2)c1
    0.99	1.4
66) O=C1CC(c2ccco2)CC2=C1C(c1ccccc1)n1nc(C(F)(F)F)nc1N2 (stereo not given)
    0.39	0.85
67) O=C(CSc1nccc2ccccc12)N1CCN(Cc2ccc3c(c2)OCO3)CC1
    0.73	0.14
68) COC(=O)C(Cc1ccccc1)NC(=O)CSc1nc(C)cc(=O)[nH]1 (stereo not given)
    2	-1
69) COc1ccc(N2CCN(C(=O)CCc3ccc(S(=O)(=O)NC(C)C)cc3)CC2)cc1
    0.35	0.34
70) Cc1ccc(S(=O)(=O)N2CCCC2)cc1C(=O)N1CCC(C)CC1
    1.7	0.41
71) C/C=C\C=C\C(=O)N1CC2(CC(c3cccc(NC(=O)COc4ccc(Cl)cc4)c3)=NO2)C[C@H]1C(N)=O (stereo not given in full)
    0.79	0.42
72) CCOC(=O)N1CCN(Cc2nc(N)nc(Nc3ccccc3C)n2)CC1
    0.41	0.79
73) CC(=O)c1ccc(Nc2nc3ccc(C)cc3n3cnnc23)cc1
    0.26	-0.7
74) Cc1ccc(NC(=O)c2cccc(S(C)(=O)=O)c2)cc1
    1	-0.79
75) CC(=O)c1ccc(Nc2nc(N3CCOCC3)nc(N3CCOCC3)n2)cc1
    0.12	-0.19
76) Cc1cccc(-n2c3nc(=O)[nH]c(=O)c-3cc3c(C)nn(-c4ccccc4)c32)c1
    0.02	-1.7
77) O=C(c1ccc(N2C(=O)CCC2=O)cc1)N1CCOCC1
    1.4	-1.7
78) CN(CC(=O)Nc1ccc(F)c(F)c1F)C(=O)Cc1ccc2c(c1)OCCO2
    1.4	0.01
79) CCCCOC(=O)C1=C(C)NC(=O)NC1c1ccc(OC)cc1 (stereo not given)
    0.71	-1.7
80) Cn1c(=O)c2[nH]c(N3CCN(c4cccc(O)c4)CC3)nc2n(C)c1=O
    0.21	-0.94

# The list goes on.
# Every second line gives: KCNQ2 enhance	KCNQ2 enhance baseline
81) CN(Cc1ccco1)C(=O)Cn1c(=O)oc2cc(S(=O)(=O)NCc3ccccc3)ccc21
    0.01	-2
82) CCOC(=O)c1ccc(NC(=O)Cn2nnc(-c3ccccc3F)n2)cc1
    0.26	-0.08
83) O=C(CSc1ccc(-c2cccc([N+](=O)[O-])c2)nn1)NCc1ccccc1
    0.02	0.85
84) COc1ccc(-c2noc(C3CCCN(C(=O)Nc4ccccc4)C3)n2)cc1 (stereo not given)
    0.47	-0.05
85) Cc1ccccc1NC(=O)Nc1ccc2c(c1)CCC2
    1.1	-0.07
86) CCOC(=O)NC(=O)/C(N=Nc1cccc(C(F)(F)F)c1)=C(\C)O
    0.2	1.3
87) Nc1ccc(N=Nc2ccccc2)c(N)n1
    2.7	-0.45
88) O=C(Cc1ccc(Cl)c(Cl)c1)NC1CCCCCC1
    7.2*	0.2*
89) COc1ccc(NC(=O)Nc2c(C)n(C)n(-c3ccccc3)c2=O)cc1OC
    0.02	-0.53
90) CC1=C(C(=O)OC(C)C)C(c2ccsc2)NC(=O)N1C (stereo not given)
    0.04	-1.8
91) COc1cc(NC(=O)C2CCCN(S(=O)(=O)c3ccc4c(c3)oc(=O)n4C)C2)cc(OC)c1 (stereo not given)
    0.24	0.4
92) O=C(/C=C/c1cccs1)N1CCN(c2ccccc2)CC1
    1.2	-0.69
93) CCOc1cc(C(=O)Nc2nnc(S(=O)(=O)N3CCOCC3)s2)cc(OCC)c1OCC
    0.02	-0.07
94) CCCc1nc2nc(C)c(NS(=O)(=O)c3ccc(CC(C)C)cc3)c(=O)n2[nH]1
    0.19	-0.01
95) CCn1c(C)cc(/C=C2\NC(=O)N(Cc3ccccc3)C2=O)c1C
    0.38	0.08
96) O=C(O)CN1C(=O)/C(=C\c2cccc(OCc3ccc(F)cc3)c2)SC1=S
    0.99	-0.56
97) O=C(C(NS(=O)(=O)c1cccc2nsnc12)c1ccccc1)N1CCN(c2ccccn2)CC1 (stereo not given)
    0.83	-0.82
98) CCN(CC)CC#CCC(OC)(c1ccccc1)c1ccccc1
    0.69	-1.8
99) CC1(C)CC2CC(C)(CN2S(=O)(=O)c2ccc(N)cc2)C1 (stereo not given)
    0.47	1.4
100) COC(=O)C(NC(C)=O)(Nc1ccc(C)cn1)C(F)(F)F (stereo not given)
    0.02	-0.74
101) Nc1ncc(Br)cc1N=Cc1ccccc1
    0.89	-0.65
102) COC(=O)c1ccc(NC(=S)NCc2ccco2)cc1
    1.3	0.04
103) CC1=C(C(N)=O)C(c2cccs2)n2nc(-c3cccc(C)c3)nc2N1 (stereo not given)
    0.02	-0.05
104) COc1ccc(CNC(=O)Cn2nc(C)n3cccc3c2=O)cc1
    0.55	-0.02
105) CC1(C)CC(=O)c2cnc3nc4ccccc4n3c2C1
    0.08	-0.91
106) C=CCn1c(SCC(=O)NCc2ccc3c(c2)OCO3)nnc1-c1cccnc1
    0.19	0.02
107) COc1ccccc1C(=O)Nc1ccnn1C1CCN(C(=O)C(C)(C)C)CC1
    0.49	-0.64
108) CCOc1ccc(N2CC(C(=O)OCC(=O)c3ccc(OC)cc3)CC2=O)cc1 (stereo not given)
    0.95	-1.7
109) Cc1ccccc1S(=O)(=O)Nc1ncc(C(F)(F)F)cc1Cl
    0.52	-0.31
110) CC(C)Nc1nc(NC(C)C)nc(OCCOC(=O)c2ccccc2)n1
    0.05	-0.03
111) CCCCCCNC(=O)c1ncn[nH]1
    0.44	-0.67
112) CCOC(=O)C(C)Sc1ncnc2nc[nH]c12 (stereo not given)
    0.11	-0.02
113) Cc1nc(Oc2ccccc2)c2ccsc2n1
    0.13	-0.03
114) CC(C)CC(NC(=O)c1ccc(Cl)cc1)C(=O)OCC(=O)c1ccc2c(c1)NC(=O)CO2 (stereo not given)
    0.91	0.84

# Fetched by compound from the entries so far:
# Every second line gives: KCNQ2 enhance	KCNQ2 enhance baseline
111) CCCCCCNC(=O)c1ncn[nH]1
    0.44	-0.67
108) CCOc1ccc(N2CC(C(=O)OCC(=O)c3ccc(OC)cc3)CC2=O)cc1 (stereo not given)
    0.95	-1.7
105) CC1(C)CC(=O)c2cnc3nc4ccccc4n3c2C1
    0.08	-0.91

# Screening results as filed in PubChem BioAssay.

# A portion of the library, so the mix of outcomes need not match the whole.
